Screening results from PubChem.
BJeLR viability: MLPCN primary cell-based screen for lethality selective to Ras in HRASV12 cells; BJeLR (HRASV12) viability, CellTiter-Glo ATP luminescence, 48 h; reference of the scale not given here; inhibition, % (no concentration beside the values); 0.17% of 300,000 active;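 active means replicate mean above 50%; inconclusive means above 50% but judged a plate artefact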;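 further: 50 nL library stock added to about 25 µL; numbers are from one replicate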
ugtP null kill: growth inhibition of ugtP-null S. aureus, primary screen, RN4220 ugtP deletion, OD600. 0.54% of 330,000 active. 16 h; some inactives read as strong as hits. growth inhibition, % (no concentration beside the values). AID 1259309, 2017;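 active means z-score under -3 and OD600 up to 0.15 on both plates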;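 further: plate controls were untreated wells for no effect and antibiotic for full effect; wells of about 80 µL received 100 nL stock; the first replicate is given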
Sa RN4220 lethal: growth inhibition of S. aureus RN4220, primary screen, OD600; 16 h; inhibition, % (concentration not given with the values); 0.33% of 330,000 active; AID 1259311, 2017;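 active means z-score of -3 or lower and OD600 up to 0.18 on both plates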;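 further: plate controls were untreated cells for no effect and reference antibiotic for full effect; stock transfer was 100 nL into about 80 µL; one replicate is shown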
Bead autofluor: counter-screen for toxin protease inhibitors: compound fluorescence; 3.1% of 360,000 active; compound autofluorescence counterscreen, microsphere flow cytometry; active compounds read high; fluorescence intensity (concentration not given with the values); AID 624483;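 active means at least 3 SD above the mean of all compounds, about 16000 in these data; inconclusive means too few beads counted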;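 further: 100 nL of 1 mM stock went into each well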
Mtb hypoxia rep: PubChem AID 1159583 | fluorescence inhibition, % (no concentration beside the values) | M. tuberculosis hypoxia-regulated fluorescent reporter, fluorescence | 0.1% of 300,000 active;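 active means 35 to 45% if threefold the growth effect, above 45% if 1.5-fold the growth effect; inactive means the rest, general growth blockers included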;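 further: wells of about 50 µL received 100 nL stock; 0% = vehicle wells and 100% = reference inhibitor wells; whole bacteria with a GFP reporter of the hypoxia response; strong numbers were not always called active; many hits fall short of the cut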
PrP UTR inh: inhibition of PrP 5' UTR reporter expression. 0.35% of 340,000 active. inhibition, % (no concentration beside the values). cell-based PrP 5' UTR mRNA reporter, plate reader;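 active means every replicate at 50% or more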;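 further: 0 = median of the neutral control wells; tested in H4 reporter cells; numbers are from one replicate; inactives centre near -14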
Mtb hypoxia rep growth: further read-out of Mtb hypoxia rep, marked with its call; growth inhibition, %; measured here: M. tuberculosis growth (absorbance);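 0% = vehicle and 100% = reference antibiotic; read after six days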
An asterisk follows results filed as active; ? = inconclusive; . = not tested or not shown; & = joins results of further samples. Rows are unselected; 4% or so of the library scored in one or more.

SMILES	BJeLR viability	ugtP null kill	Sa RN4220 lethal	Bead autofluor	Mtb hypoxia rep	Mtb hypoxia rep growth	PrP UTR inh
Cc1cc(C)n(/N=C/c2ccccc2O)c(=O)c1	1.0	.	.	2619	.	.	-21.6
COc1ccc(-c2nnn(CC(=O)N(Cc3cccs3)C(C)C(=O)NCCC(C)C)n2)cc1OC (configuration not stated)	-2.4	6.9	-12.4	3527	6.8	10.4	-8.5
Cc1ccnc(NC(=O)CNC(=O)c2ccccc2)c1	-4.2	0.9	-0.3	.	-4.3	-1.5	-18.7
Cc1cccc2cc(COC(=O)C(C)C)c(=O)[nH]c12	-5.4	-1.6	-7.2	3446	13.8	1.4	-6.7
COC(=O)c1c(C)n(-c2ccc(OC)cc2)c2ccc(O)cc12	5.8	-4.1	4.1	2241	.	.	-0.1
Cc1cc(C)cc(NC(=O)COC(=O)c2cccc(S(=O)(=O)N3CCCCC3)c2)c1	.	0.7	2.4	9129	6.8	0.1	-20.6
COc1ccc(Cl)cc1NC(=S)N1CCCCCC1	3.4	-0.8	2.9	6056	-1.4	-7.3	-15.3
CC(C)CN1C(Nc2ccccc2)=NC[C@@H]1C	-4.3	.	.	4094	.	.	-14.6
COc1ccccc1CC(=O)O/N=C(\N)c1cccc([N+](=O)[O-])c1	-8.2	13.3	4.3	3563	2.2	5.5	-8.2
C#CCOCCOCCOCCNc1nc(N2CCN(C(=O)C(CCC(=O)O)n3cc(C(N)CC(C)C)nn3)CC2)nc(N2CCN(C(=O)C(CCC(=O)O)n3cc(C(N)CC(C)C)nn3)CC2)n1 (configuration not stated)	.	1.1	4.2	.	5.3	7.7	.
CCCc1nc2sc(C(=O)OCC)c(N)c2c2c1COC(C)(C)C2	-3.5	3.8	6.0	2177	.	.	-17.9
CCC1CCCCN1S(=O)(=O)c1ccc(NC(=O)c2cccs2)cc1 (configuration not stated)	-8.5	-19.4	5.0	12329	-6.9	-11.0	-17.7
CCC(=O)Nc1cc(-c2nc3ncccc3o2)ccc1Cl	2.1	2.9	5.4	4118	3.4	17.4	-13.1
COc1ccc(CCNC(=O)NCCc2c[nH]c3ccccc23)cc1OC	0.8	2.7	-2.3	3074	14.7	4.7	-15.5
CCc1noc(C)c1C(=O)OCC(=O)NCc1ccccc1OC	.	3.5	1.8	6467	3.3	7.6	0.2
Cc1ccc(C(=O)Nc2ccon2)cc1S(=O)(=O)N1CCCCCC1	-1.6	22.1	8.0	11490	6.0	9.5	-18.6
COCC(=O)Nc1cc(C(=O)Nc2ccccc2)ccc1Cl	6.5	2.8	3.4	.	8.3	1.0	.
COc1ccc(N(CC(=O)NCCSCc2ccccc2Cl)S(C)(=O)=O)cc1Cl	-3.5	3.5	3.0	3975	14.1	7.0	-17.2
CC(=O)Nc1ccc(NC(=O)c2cc(C)nn2-c2ccccc2)cc1	1.8	0.9	0.6	22454*	-4.9	-1.3	-10.0
O=Cc1ccc(Sc2ncccn2)o1	.	0.6	2.3	3962	13.1	6.8	0.4
CCOc1ccc(C(=O)Nc2c3c(nn2C(C)(C)C)CSC3)cc1OCC	-6.0	-5.4	1.0	10128	2.1	8.7	-12.0
Nc1[nH][nH]c(=O)c1N=Nc1ccccc1	.	2.8	3.9	3900	10.6	4.7	-43.2
CC(=C1C(=O)c2ccccc2C1=O)N1CCN(c2ccc(F)cc2)CC1	16.2	0.8	3.3	4186	2.0	1.6	2.6
CCOc1ccc(NC(=O)CSc2nnc(C3CC3)n2C2CC2)cc1	.	0.1	4.0	?	9.8	2.0	-17.4
CCC(=O)N1CCC(c2ccc(OC)cc2)=N1	4.1	6.4	2.5	2226	2.4	5.8	-32.5

A draw from above in order of SMILES length, falling:
SMILES	BJeLR viability	ugtP null kill	Sa RN4220 lethal	Bead autofluor	Mtb hypoxia rep	Mtb hypoxia rep growth	PrP UTR inh
COc1ccc(N(CC(=O)NCCSCc2ccccc2Cl)S(C)(=O)=O)cc1Cl	-3.5	3.5	3.0	3975	14.1	7.0	-17.2
Cc1ccc(C(=O)Nc2ccon2)cc1S(=O)(=O)N1CCCCCC1	-1.6	22.1	8.0	11490	6.0	9.5	-18.6
CCCc1nc2sc(C(=O)OCC)c(N)c2c2c1COC(C)(C)C2	-3.5	3.8	6.0	2177	.	.	-17.9
CCOc1ccc(NC(=O)CSc2nnc(C3CC3)n2C2CC2)cc1	.	0.1	4.0	?	9.8	2.0	-17.4
CCc1noc(C)c1C(=O)OCC(=O)NCc1ccccc1OC	.	3.5	1.8	6467	3.3	7.6	0.2
COCC(=O)Nc1cc(C(=O)Nc2ccccc2)ccc1Cl	6.5	2.8	3.4	.	8.3	1.0	.
CCC(=O)Nc1cc(-c2nc3ncccc3o2)ccc1Cl	2.1	2.9	5.4	4118	3.4	17.4	-13.1
Cc1ccnc(NC(=O)CNC(=O)c2ccccc2)c1	-4.2	0.9	-0.3	.	-4.3	-1.5	-18.7
CCC(=O)N1CCC(c2ccc(OC)cc2)=N1	4.1	6.4	2.5	2226	2.4	5.8	-32.5
O=Cc1ccc(Sc2ncccn2)o1	.	0.6	2.3	3962	13.1	6.8	0.4

Carrying on:
SMILES	BJeLR viability	ugtP null kill	Sa RN4220 lethal	Bead autofluor	Mtb hypoxia rep	Mtb hypoxia rep growth	PrP UTR inh
COc1cc2c(cc1NC(=O)c1ccc(C(C)(C)C)cc1)CCCC2	11.8	-19.8	-10.6	3948	.	.	-9.8
COc1ccccc1OCCn1cc(C(=O)O)c2ccccc21	0.8	4.9	4.6	4936	3.6	4.6	-47.0
COc1ccc(NC(=O)CCNS(=O)(=O)c2cc(Br)ccc2Br)cc1S(N)(=O)=O	-5.3	4.1	2.1	5468	-5.7	-2.8	-2.1
Cc1ccc(SCC(=O)OCC(=O)N(C)CC(=O)Nc2ccc(F)cc2)cc1C	5.2	5.7	6.1	5025	9.4	1.0	-27.3
CCCC1(CCC)C(=O)NC(=NCc2ccccc2)NC1=O	-1.4	7.7	5.1	9031	0.2	0.1	-26.9
CCCc1nnc(NC(=O)CCCN2C(=O)c3ccccc3C2=O)s1	3.6	-5.9	-1.3	2716	.	.	-16.9
CN1C(=O)C(O)N=C(c2ccccc2)c2ccccc21 (configuration not stated)	1.5	6.6	1.6	3483	8.3	7.0	-29.4
Cc1ccccc1S(=O)(=O)c1cc(C#N)c(=O)[nH]c1N	-0.8	.	.	1944	.	.	-28.5
Cc1ccc(NC(=O)C/C(N)=N/OC(=O)c2ccccc2)cc1	7.2	2.5	3.7	4471	1.9	-4.1	-5.0
COc1ccc(S(=O)(=O)Nc2ccc(S(=O)(=O)N3CCCCC3)cc2)cc1OC	-1.0	5.3	0.5	5497	8.9	11.4	-6.6
Cc1cc(C)nc(NN=Cc2cc(C)n(CC(F)(F)F)c2C)n1	.	9.9	3.9	.	13.5	3.9	.
Cc1ccc(S(=O)(=O)N2CC(O)C[C@H]2C(=O)OCC(=O)N2CCN(c3ccc(F)cc3)CC2)cc1C (some centres not stated)	.	4.7	4.4	5341	3.5	4.8	1.1
NC(=O)NN=Cc1cn(-c2ccccc2)nc1-c1cccnc1	.	2.4	1.2	.	-5.0	-1.7	.
O=C(CSc1ncnc2scc(-c3ccccc3)c12)N1CCN(c2ccccc2F)CC1	1.7	0.4	-1.4	2463	16.9	7.0	-12.5
O=C(CCN1C(=O)/C(=C/c2ccc(F)cc2)SC1=S)Nc1cccnc1	-2.0	8.5	5.4	5180	-9.6	-0.3	-15.5
CC(C)(C)OC(=O)CC1CC=CCC(CC(=O)N(CCO)Cc2ccccc2)C(=O)NCCOC1=O (configuration not stated)	.	-1.2&5.0&-6.7	2.4&3.0&6.3	.	5.1&4.9&4.6	-0.2&10.9&11.2	.
COc1ccc(CC2(C)OC(c3ccncc3)=NN2C(C)=O)cc1 (configuration not stated)	9.3	2.7	2.0	4763	10.9	-2.6	6.0
Cc1cc(NC(=O)CSc2nc3c(sc4ccccc43)c(=O)n2CCc2ccccc2)n[nH]1	3.0	0.3	6.6	8491	4.2	6.4	-18.3
CC1Cc2cc(S(=O)(=O)N3CCN(c4ccc(Cl)cc4)CC3)ccc2N1C(=O)C1CC1 (configuration not stated)	4.0	2.4	1.4	5579	1.8	4.3	1.2
CC(C)C(NC(=O)CN1C(=O)c2ccccc2C1=O)c1ccccc1 (configuration not stated)	3.3	10.2	-1.7	4044	5.9	-0.6	-7.4
CC(C)(C)c1cc(-c2n[nH]c(=S)n2-c2ccc(Cl)cc2)n[nH]1	3.0	-8.5	1.9	5751	-3.9	-6.4	-9.3
CC(OC(=O)CCc1nc2ccccc2[nH]c1=O)c1ccccc1 (configuration not stated)	6.1	-0.5	5.5	4109	-7.4	5.0	-18.4
CC1(C)C(=O)OC(c2ccccc2)C(C)(C)C1=O (configuration not stated)	1.7	-1.2	1.5	4632	3.7	13.9	0.0
CCC(C(=O)Nc1ccccc1)c1ccccc1 (configuration not stated)	1.4	5.7	-0.6	9189	-2.4	0.6	-28.0
Cc1ccc2oc(Nc3nc(C)cc(C)n3)nc2c1	-1.8	4.0	3.1	3116	.	.	-42.9
(more compounds)
SMILES	BJeLR viability	ugtP null kill	Sa RN4220 lethal	Bead autofluor	Mtb hypoxia rep	Mtb hypoxia rep growth	PrP UTR inh
Cn1cc(Cl)nc1C(O)c1ccccc1 (configuration not stated)	-1.0	4.0	3.8	2398	6.7	0.6	-6.1
CS(=O)(=O)c1ccc(Cl)c(NC(=O)COC(=O)CCc2c[nH]c3ccccc23)c1	-1.6	11.5	6.2	4687	5.0	3.9	-1.2
Cc1cc2ccccn2c1C(=O)c1cc([N+](=O)[O-])cc([N+](=O)[O-])c1	-10.2	2.8	-2.1	3370	-2.2	10.8	-8.2
CC(=O)c1c(C)[nH]c(C(=O)OCC(=O)Nc2ccccc2Cl)c1C	13.2	-10.2	-0.9	4395	-7.4	0.2	-13.1
O=C(Cc1ccccc1)Nc1cccc(N2CCCC2)c1	-9.9	3.9	3.1	22002*	2.7	-0.5	-27.9
CN(C)c1ccc(N=Cc2ccco2)cc1	.	-7.7	-1.2	20149*	4.0	5.6	-59.1
CC(=O)c1cc(-c2ccc(F)cc2)n(CCC(=O)NC(C)(C)C)c1C	-2.4	4.7	3.6	2514	8.6	7.3	-12.3
O=c1[nH]c(C2CCCCC2)nc2ccccc12	11.2	-0.5	5.5	2478	7.3	2.3	-14.8
COc1ccc(OC)c(C2C(C#N)=C(N)N(N(C)C)C3=C2C(=O)CC(C)(C)C3)c1 (configuration not stated)	1.3	5.4	-0.4	3946	3.6	-13.0	-15.5
CCC1CCCCN1CCCn1c(=S)[nH]c2ccccc2c1=O (configuration not stated)	-6.2	-4.2	-0.4	3086	.	.	-25.5
COc1ccc(Cl)cc1C(=O)OCC(=O)NC1CCCC(C)C1C (configuration not stated)	.	-0.2	6.7	5110	-0.8	6.9	-25.7
Brc1ccc(C=NNc2ccccc2)cc1	.	27.4	-6.1	.	12.3	3.2	.
Cc1ccc(N2C(=O)CC(Sc3nc4ccccc4o3)C2=O)cc1Cl (configuration not stated)	7.3	19.9	17.8	9149	5.9	10.3	-13.8
COc1cc(NC(=O)C2CCN(S(=O)(=O)c3cccs3)CC2)cc(OC)c1	-4.8	0.3	2.8	4369	3.5	1.5	-7.7
COc1cc(C=NO)c(Br)cc1OCC(=O)Nc1ccccc1C	.	-0.3	4.6	.	9.1	2.9	.
Cn1c(=O)c2c(nc(NCCCO)n2CCc2ccccc2)n(C)c1=O	9.5	3.6	1.1	4508	.	.	-4.4
Cc1cc(NS(=O)(=O)c2ccc(NC(=O)COc3ccccc3Cl)cc2)no1	5.8	-10.1	5.9	24447*	12.9	23.5	-10.9
CCc1nc2c(nnn2Cc2ccc(F)cc2)c(=O)[nH]1	-7.3	1.5	1.7	5047	9.1	4.8	-22.6
Cc1ccc(C(=O)N2CCN(S(=O)(=O)c3ccc(C)c([N+](=O)[O-])c3)C2)cc1	3.8	-0.2	2.6	4668	2.3	-2.0	-25.4
